# From PubChem BioAssay
# Six1-Eya2 blk: blocks human Six1 binding to Eya2. Q15475+O00167. AlphaScreen GST-Six1/His-Eya2 binding, biochemical; stronger effect = lower value; control for the full effect not named in the record. activity change, % (concentration not given with the values). 360,000 compounds, 0.56% hits; in the data active = activity change below about -65%; inconclusive = about -30% to -65%; inactive = above about -30%; note: % is set by controls: 0 for no effect and ±100 for the full control effect
#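 AlphaScreen luminescence read after one hour at 37 °C in darkness. Pin-transferred compounds met GST-Six1 and His-Eya2 protein (5X stock 250 nM/500 nM) plus glutathione donor and Ni-chelate acceptor beads (5X, 50 ug/mL).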
# D2 potentiator: positive allosteric modulators of human D2 dopamine receptor; AID 624464; potentiation, % (no concentration beside the values); 360,000 compounds, 0.23% hits; DiscoveRx D2 beta-arrestin cells, luminescence, 90 min; 100% = 57 uM dopamine signal; P14416; active = potentiation of 50% or more; inconclusive = 30% to 50%; inactive = 30% or less;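 note: compound concentration not given in the record; tested on top of an EC20 dose of dopamine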
# Target sequence (P14416 whole entry, looked up): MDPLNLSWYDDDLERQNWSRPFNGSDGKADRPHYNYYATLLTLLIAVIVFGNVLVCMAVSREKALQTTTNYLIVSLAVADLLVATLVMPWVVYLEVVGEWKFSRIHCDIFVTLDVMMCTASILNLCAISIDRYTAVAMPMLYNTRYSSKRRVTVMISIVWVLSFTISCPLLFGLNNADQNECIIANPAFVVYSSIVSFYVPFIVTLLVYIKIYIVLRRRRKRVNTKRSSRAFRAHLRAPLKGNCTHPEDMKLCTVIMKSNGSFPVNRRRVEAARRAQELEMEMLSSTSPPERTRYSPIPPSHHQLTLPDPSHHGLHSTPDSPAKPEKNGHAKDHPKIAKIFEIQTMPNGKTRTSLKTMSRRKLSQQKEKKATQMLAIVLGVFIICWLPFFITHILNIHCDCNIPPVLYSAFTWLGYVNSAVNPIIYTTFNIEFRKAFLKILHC
#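 PathHunter beta-arrestin assay in DiscoveRx D2 cells. Compounds were added with an EC20 of dopamine (50 nM final) for 90 min at 37 deg C. Luminescence was read 1 h after detection reagent, with 57 uM dopamine as the EC100 control.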
# TRPML1 agonist: agonists of human TRPML1 channel; AID 624414; 410,000 compounds, 0.12% hits; activation, % (test concentration not listed); TRPML1-expressing cells, Ca2+ dye fluorescence, FDSS; host cell line not named in the record; reference of the full effect not given here; Q9GZU1; in the data active = activation above about 50%; inconclusive = about 30% to 50%; inactive = below about 30%; note: 0% is about no effect; the text of the record puts the active cut at 80%
# Target sequence (Q9GZU1 whole entry, looked up): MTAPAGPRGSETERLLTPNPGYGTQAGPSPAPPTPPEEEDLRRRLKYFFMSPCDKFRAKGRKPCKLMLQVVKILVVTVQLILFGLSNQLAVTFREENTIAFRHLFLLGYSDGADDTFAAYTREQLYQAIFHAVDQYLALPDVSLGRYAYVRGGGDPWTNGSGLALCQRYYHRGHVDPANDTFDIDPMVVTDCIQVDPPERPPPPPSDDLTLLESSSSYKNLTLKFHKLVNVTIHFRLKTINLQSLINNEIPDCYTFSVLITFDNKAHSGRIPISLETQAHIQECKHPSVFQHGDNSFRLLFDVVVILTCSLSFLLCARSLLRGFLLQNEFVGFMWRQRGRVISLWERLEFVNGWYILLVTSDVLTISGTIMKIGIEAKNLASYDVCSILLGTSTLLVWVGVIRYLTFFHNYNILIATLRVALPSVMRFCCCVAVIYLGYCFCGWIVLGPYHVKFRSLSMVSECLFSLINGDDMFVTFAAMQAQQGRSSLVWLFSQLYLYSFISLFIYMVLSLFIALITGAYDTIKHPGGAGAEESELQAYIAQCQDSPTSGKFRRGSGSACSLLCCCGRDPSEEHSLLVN
#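 Kinetic FDSS Ca2+ read in Tet-induced TRPML1-DL cells (ABD Ca8 dye plus quencher, 45-90 min RT loading): baseline, then compound, then 110 s agonist window; EC80 agonist 54-4 at 4uM final added afterwards for a 110 s antagonist window.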
# D2 ag: activates the human D2 dopamine receptor | DiscoveRx PathHunter D2 beta-arrestin, luminescence, 90 min; 100% = 57 uM dopamine signal | AID 624465 | P14416 | activation, % (test concentration not listed) | 360,000 compounds, 0.084% hits; in the data active = activation above about 40%; inconclusive = about 15% to 40%; inactive = below about 15%; note: compound concentration not given in the record; the text of the record calls up to 30% inactive
#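 Agonist mode: compounds alone added to overnight-plated D2 PathHunter cells for 90 min at 37 C, with 57 uM final dopamine (EC100) defining full response. Beta-arrestin recruitment detected by chemiluminescent reagent, read after 1 h at ambient temperature.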
# TRPML1 inh: blocks the human TRPML1 channel. Q9GZU1. TRPML1-inducible cells, Ca2+ dye fluorescence, FDSS; stronger effect = lower value; inhibition of EC80 agonist-evoked calcium signal. activity change, negative = inhibition, % (test concentration not listed). 390,000 compounds, 0.02% hits; in the data active means activity change below about -50%; inconclusive means about -30% to -50%; inactive means above about -30%;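 note: stimulus is agonist 54-4 at its EC80 concentration; % is set by controls: 0 for no effect and ±100 for the full control effect; compound concentration not given in the record; the text of the record puts the active cut at -80%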
#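 Calcium fluorescence in TRPML1-DL cells induced overnight with Tet: a 110 s read after compound pin addition, then a 110 s antagonist read after challenge with 54-4 at 4 uM final (EC80).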
# PINK1 modulator: changes PINK1 expression; PINK1 immunofluorescence, high-content cytometry, 24 h; 410,000 compounds, 0.2% hits; AID 624263; Potency, µM (top dose mostly 76.6 µM), without a hit: at the highest dose activation (PINK1 increase), usual class: activators; active = well fitted activation curve with a large enough effect; inconclusive = small, poorly fitted or top-dose-only effect; inactive = flat fitted curve, though single readings scatter; cell line not stated here;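 note: potency is the fitted concentration of half-maximal effect; % of control where 0% means no effect; nearly all actives have a fitted effect of over 65% in size; a mitochondrial uncoupler was the plate control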
#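 Stable cell line, 250 cells/well, 12 h attachment; compounds pinned at 5 concentrations, 24 h; CCCP control. Fixed with nuclear dye, primary antibodies 12 h at 10 degrees C, secondary plus cell stain; laser-scanning cytometer read.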
# * hit, by the source's call; ? = inconclusive; · = not tested or not shown; [ ] = remark or other dose.
SMILES,Six1-Eya2 blk,D2 potentiator,TRPML1 agonist,D2 ag,TRPML1 inh,PINK1 modulator
O=C(Cn1ncc2c(=O)oc3ccccc3c21)NCC1CCCO1 (stereo not given),2,-9,-0.1,-5.8,30,2.7%
Cc1cc(C)c(S(=O)(=O)N2CCN(C(=O)C(C)Cn3cncn3)CC2)c(C)c1 (stereo not given),2,-5,-0.1,-4.1,-2,1.1%
COc1ccc(/C=N/n2c(=O)[nH]c3c([nH]c4ccc(F)cc43)c2=O)cc1CN1CCCCC1,-23,-7,-0.4,-3.2,7,0.0%
Cc1ccc(NC(=O)Nc2ccccc2F)cc1S(=O)(=O)N1CCOCC1,-11,0,-0.8,-2.5,15,2.6%
CCC(CC)C(=O)Nc1cc(C(=O)OC)ccc1C(=O)OC,19,-19,1.6,-1.9,-22,5.7%
Cc1ccc(CNC(=O)C(=O)NCC(c2ccc3c(c2)OCO3)N2CCOCC2)cc1 (stereo not given),·,·,0.7,·,-11,-1.1%
CCOc1ccc(Nc2nc3ccccc3n3cnnc23)cc1,0,0,0.9,3.3,2,5.2%
COc1ccccc1CCn1cnc(C)c1CC(C)C,-4,·,-0.2,·,·,-0.9%
COc1ccccc1OCCCCOc1ccccc1F,68,-7,3.3,1.2,2,·
O=C(NCC1OCCc2ccccc21)c1ccc(NC(=O)c2ccc(Cl)cc2)cc1 (stereo not given),15,-17,1.8,2.0,35,-0.5%
CC(C)Cc1cc(C(=O)N2CCCC(CCC(=O)N(C)CCc3ccccn3)C2)no1 (stereo not given),6,1,3.3,3.7,?,0.6%
COc1ccccc1OCCSc1nc2ccccc2n1CC(=O)N1CCOCC1,·,·,-0.7,·,-9,-1.5%
O=C(CSc1nc2ccccc2c(=O)n1-c1ccc(OC(F)F)cc1)NCc1cccs1,0,-22,0.3,1.6,-6,5.3%
CCCCC(NS(=O)(=O)c1ccc(OC)cc1)C(=O)O (stereo not given),-2,8,0.4,0.2,1,-3.0%
Cc1cc(C)cc(NC(=O)CCc2nc3ccccc3[nH]2)c1,12,-38,-0.5,-1.3,30,1.8%
COc1c(Cl)c(=O)oc2ccc(Cl)cc12,16,0,0.1,-0.3,-12,-0.5%
COc1ccc(NC(=O)C2=Cc3ccccc3OC2)cc1,0,-4,0.3,-2.5,10,-0.4%
CCOC(=O)CN(C)C(=O)CCc1nnc(-c2ccc(-c3ccccc3)cc2)o1,0,0,-0.2,8.9,3,2.6%
N#Cc1cnn2c(-c3ccccc3)ccnc12,22,-20,-1.4,-3.8,12,-0.3%
Cc1cc(NC(=O)C2CCCN(S(=O)(=O)c3c(C)noc3C)C2)no1 (stereo not given),0,5,-0.7,1.3,9,0.3%
O=C(Oc1c(Cl)cc(Cl)c2cccnc12)c1cccs1,-67*,-11,4.1,-0.7,9,-0.6%
Cc1ccc(NC(=O)CSC2=C(C#N)C(c3ccco3)C3=C(CC(C)(C)CC3=O)N2)cc1 (stereo not given),-15,-22,-0.1,-3.3,-2,1.1%
CCOC(=O)C1CCCN(c2nc3ccccc3nc2C(C#N)C(=O)OCCOC)C1 (stereo not given),-6,-3,-0.5,-5.2,5,9.3%
COc1ccc(N(C(C)=O)S(=O)(=O)c2cccc3cccnc23)cc1,8,-2,1.4,-2.6,53,-0.5%
CCCn1c(/N=C/c2c[nH]c3ccccc23)nc2ccccc21,-11,-17,1.1,-1.8,-7,·

# Entries listed so far containing fluorine, in the order listed:
SMILES,Six1-Eya2 blk,D2 potentiator,TRPML1 agonist,D2 ag,TRPML1 inh,PINK1 modulator
COc1ccc(/C=N/n2c(=O)[nH]c3c([nH]c4ccc(F)cc43)c2=O)cc1CN1CCCCC1,-23,-7,-0.4,-3.2,7,0.0%
Cc1ccc(NC(=O)Nc2ccccc2F)cc1S(=O)(=O)N1CCOCC1,-11,0,-0.8,-2.5,15,2.6%
COc1ccccc1OCCCCOc1ccccc1F,68,-7,3.3,1.2,2,·
O=C(CSc1nc2ccccc2c(=O)n1-c1ccc(OC(F)F)cc1)NCc1cccs1,0,-22,0.3,1.6,-6,5.3%

# Remaining list, next part
SMILES,Six1-Eya2 blk,D2 potentiator,TRPML1 agonist,D2 ag,TRPML1 inh,PINK1 modulator
O=C(Nc1csc(Cc2c(Cl)cccc2Cl)n1)NN1CCOCC1,-1,1,1.9,1.9,22,5.4%
CCOc1ccc(N=NC2C(=O)N(C(N)=S)N=C2C)cc1 (stereo not given),2,-41,0.3,-7.9,0,2.3%
COc1ccc(CN2CCN(Cc3cccn3-c3ncccn3)CC2CCO)c(C)c1C (stereo not given),-10,-5,-1.1,1.6,0,1.5%
COc1cc(C(=O)OCc2ccccc2C#N)ccc1OCC(=O)N1CCOCC1,2,-3,0.0,4.5,-3,-0.7%
CCN1C(=C(C#N)C#N)C=Cc2cc(C)ccc21,-10,5,-0.7,6.2,-23,1.3%
COc1ccccc1NC(=O)NNC(=O)c1ccc2ccccc2c1O,5,-2,0.2,3.6,31,5.7%
Cc1ccc(OCC(=O)c2cc(C)n(C)c2C)c([N+](=O)[O-])n1,-15,-17,-0.5,-1.9,3,0.1%
Cc1ccccc1C(=O)N1N=C(c2cccc(NS(C)(=O)=O)c2)CC1c1cccs1 (stereo not given),2,-11,0.5,-2.3,-7,-0.5%
CC1=C(C(=O)N2CCOCC2)C(c2ccccc2F)C2=C(CCCC2=O)N1 (stereo not given),-1,-9,-0.5,-0.5,0,-3.6%[38.3 µM]
COc1ccc(C(C(=O)NC(C)(C)C)N(Cc2ccco2)C(=O)CCC(=O)Nc2ccccn2)cc1 (stereo not given),5,0,2.2,-2.0,-24,0.2%
O=C(c1cc(-c2ccc(Br)cc2)on1)N1CCCC1,6,0,2.9,7.7,22,7.6%
C=CCn1c(SCC(=O)NC2(C#N)CCCCC2)nnc1-c1ccncc1,-8,0,0.3,-2.1,43,2.8%
CCOc1ccc(S(=O)(=O)N(C)c2ccc(OCC(=O)NCCc3ccc(OC)cc3)cc2)cc1,-17,-9,2.5,-0.2,31,2.3%
CC(C)=CCN1CCN(Cc2cnc(C)s2)CC1CCO (stereo not given),-5,-11,0.4,-3.3,9,-0.4%
Cc1c(C2Nc3ccccc3NC3=C2C(=O)CC(C)(C)C3)cnn1C (stereo not given),6,-22,0.7,-2.0,-16,0.5%
N#C/C(=C\c1ccc(N2CCCCC2)o1)C(=O)Nc1cccc(Br)c1,-9,-13,119*,-4.0,?,6.3µM*
CC(C)OC(=O)Nc1ccc(-c2ccc(NC(=O)OC(C)C)cc2Cl)c(Cl)c1,-2,6,0.3,5.2,-2,2.0%
COC(=O)CC#N,-1,-11,0.0,2.1,0,1.9%
O=C(NCc1ccc(F)cc1)c1cc(-c2ccncc2)nc2ccccc12,2,-4,1.5,-1.7,-2,-0.5%
O=C(O)c1ccc2c(c1)N(Cc1ccccc1)C(=O)c1ccccc1S2=O (stereo not given),-2,-7,0.0,-2.7,0,2.3%
CCN(CC)S(=O)(=O)c1ccc2c(c1)c(=O)c(C(=O)NCc1ccccc1OC)cn2C,·,·,-1.1,·,-10,0.9%
COCCNC(=O)C1CC(=O)N(C2CCCC2)C1 (stereo not given),0,3,1.3,-4.4,-2,·
CCc1ccc(NC(=O)C2CCC(CNS(=O)(=O)c3ccc4c(c3)CC(C)N4C(C)=O)CC2)cc1 (stereo not given),·,·,2.3,·,-11,3.1%
COc1ccc(OC)c(CNC(=O)c2ccc3c(c2)c(C)c(C)n3C)c1,·,·,2.8,·,19,1.9%
Cn1c(N)c(C(=O)COC(=O)c2ccccc2C(=O)c2ccc(Cl)cc2)c(=O)n(C)c1=O,-2,-12,-0.4,-0.7,4,2.5%

# Complete entries, quoted from the list:
# `COc1ccccc1NC(=O)NNC(=O)c1ccc2ccccc2c1O` is listed as Six1-Eya2 blk: 5; D2 potentiator: -2; TRPML1 agonist: 0.2; D2 ag: 3.6; TRPML1 inh: 31; PINK1 modulator: 5.7%
# `N#C/C(=C\c1ccc(N2CCCCC2)o1)C(=O)Nc1cccc(Br)c1` is listed as Six1-Eya2 blk: -9; D2 potentiator: -13; TRPML1 agonist: 119*; D2 ag: -4.0; TRPML1 inh: ?; PINK1 modulator: 6.3µM*

# (list continues)
SMILES,Six1-Eya2 blk,D2 potentiator,TRPML1 agonist,D2 ag,TRPML1 inh,PINK1 modulator
CC(C)Nc1ncnc2c1cnn2Cc1ccc(Cl)cc1,1,-9,3.5,5.6,-1,1.8%
CCCCN(C(=O)c1cc(Cl)nc2ccccc12)c1c(N)n(CCC)c(=O)[nH]c1=O,7,-3,-0.3,-3.8,-4,-0.2%
COc1cccc(CNS(=O)(=O)c2c(C(=O)N3CCCCCC3)c(C)n(C)c2C)c1,0,0,-1.1,-5.4,1,0.0%
NC(=O)c1ccsc1NC(=O)CN1CCN(S(=O)(=O)c2ccccc2C(F)(F)F)CC1,-1,21,0.2,4.3,12,-1.3%
CCOC(=O)c1sc(NC(=O)CSc2nnnn2-c2ccc(C)cc2)c(C(=O)OCC)c1C,1,-4,0.3,3.9,11,2.2%[38.3 µM]
CCOC(=O)N1CCN(C(=S)Nc2ccccc2C)CC1,5,-6,-1.2,-5.0,8,3.0%
N/C(=N\OC(=O)c1ccc(Br)cc1)c1cccc([N+](=O)[O-])c1,0,?,0.0,6.2,-8,4.1%
Cc1ccc(-c2nc(Nc3ccccc3)n[nH]2)cc1,-3,-24,1.1,1.4,-5,-0.4%
NC(=O)c1ccsc1NC(=O)CN1C(=O)NC2(CCCCC2)C1=O,-2,-2,0.2,1.8,3,-2.0%
CCCCc1ccc(NC(=O)CSc2nnc(CNC(=O)c3ccco3)o2)cc1,2,-3,-0.8,0.9,-9,3.8%
CCCn1c(SCc2nc(N)nc(N3CCCCC3)n2)nc2c1c(=O)n(C)c(=O)n2C,0,-8,0.2,2.3,29,0.5%
C=CCn1cc(C(=O)NCc2ccc3c(c2)OCO3)c(=O)c2cc(S(=O)(=O)N(CC)CC)ccc21,-7,0,1.8,0.5,14,?
COCCNc1nc(CSc2ccccc2)nc2sc(C)c(C)c12,5,-3,2.0,1.5,-2,0.4%
CCOc1cc(/C=C2\SC(=Nc3ccc(CC)cc3)NC2=O)ccc1OCC(=O)O,38,0,0.8,-4.5,11,-1.1%
Cc1cccc(C(=O)NCCCNC(=O)c2cccnc2)c1,15,0,-0.4,1.1,35,2.3%
COc1ccc(CCn2c3c(c(=O)[nH]c2=O)C(NC(=O)c2ccccc2OC)(C(F)(F)F)C(=O)N3)cc1OC (stereo not given),·,·,0.0,·,16,0.1%
CCOC(=O)N1CCc2c(sc(NCc3cccc(F)c3)c2C(=O)Nc2ccc(OC)cc2OC)C1,·,·,1.6,·,-3,1.4%
O=C(N/C(=C\c1ccccc1)C(=O)N1CCCCC1)c1ccco1,-11,-7,0.2,-3.2,9,-2.2%
Nc1ccc(-c2cnc3ccccc3n2)cc1,11,0,1.3,2.7,15,-1.1%
O=C(N/N=C/c1cccc([N+](=O)[O-])c1)c1ccc(CN2CCOCC2)cc1,-1,-2,0.8,-3.2,-7,1.3%
CN(C)C(CNC(=O)c1cccc(S(=O)(=O)Nc2ccccc2Cl)c1)c1ccccc1 (stereo not given),9,-40,1.0,-3.7,-5,-3.5%
